Source: PubChem (National Center for Advancing Translational Sciences (NCATS))
Sfp PPTase inh: blocks B. subtilis Sfp PPTase activity | Q9F4F7 | Biochemical Sfp PPTase activity, qHTS | Potency, µM, for inactives: max response, negative = inhibition, usual class: inhibitors | actives 3.5% (n = 310,000); active = well fitted inhibition curve with a large enough effect; inconclusive = small, poorly fitted or top-dose-only effect, or another doubt; inactive = no such curve, though single readings can be large or run the other way;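 also: the enzyme is Sfp with the accession as filed and its product quenches rhodamine fluorescence; potency is read from the fitted curve at half-maximal effect; 0% = enzyme reaction without inhibitor and -100% = no enzyme wells; top concentration of the series not given in the record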
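Fluorescence-quenching assay with 15 nM Sfp, 5 uM rhodamine-CoA and 12.5 uM BHQ-2-labelled ybbR peptide in pH 7.6 Hepes/MgCl2 buffer. Enzyme was pre-incubated with compound for 15 min at room temperature. Rate was taken from the 30-min fluorescence change (525/598 nm).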
Menin MLL FP FL: menin-MLL binding inhibition, fluorescein peptide; FP activity change, % at 61.4 µM; Fluorescence polarization, fluorescein-MLL peptide displacement from menin; AID 1766; 290,000 tested, under 10 active; inconclusive = falling polarisation curve, or a change in total fluorescence; inactive = total fluorescence flat and polarisation flat or rising; no compound was filed as active; the % refers to the polarisation; negative = inhibition;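 also: % of control where 0% means no effect; inhibitors lower the polarisation; unlabelled MLL peptide was the positive control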
gsp agonist: gsp mutant agonism; actives 0.13% (n = 340,000); AID 624287; Potency, µM (top dose mostly 76.9 µM), without a hit: at the top dose activation (cAMP increase), most hits filed as activators; gsp mutant cells, cAMP HTRF, 30 min; control for the full effect not named in the record; active = well fitted activation curve with a large enough effect; inconclusive = small, poorly fitted or top-dose-only effect, or another doubt; inactive = no such curve, though single readings can be large or run the other way; cell line not stated here;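 also: phosphodiesterase inhibitor Ro 20-1724 added with compounds to block cAMP breakdown; potency is read from the fitted curve at half-maximal effect; nearly all actives have a fitted effect of over 60% in size; about a fifth of the inactives were tested at one dose only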
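Cells stably selected in G418 were plated at 2000/well, grown 16-24 hr, then given compounds in DMSO with the PDE inhibitor […] (300 uM solution added) for 30 min at 37C; cAMP was read by HTRF.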
gsp antagonist: gsp mutant antagonism; gsp-mutant cells, cAMP HTRF, 30 min; control for the full effect not named in the record; Potency, µM (doses to about 76.9 µM), without a hit: at the top dose activity change, negative = inhibition, usual class: inhibitors; actives 0.4% (n = 340,000); AID 624288; active = falling curve of any shape with a large fitted effect; inconclusive = falling curve, mostly with a smaller effect; inactive = flat or rising curve; cell line not stated here;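 also: intracellular cAMP measured with PDE inhibitor Ro 20-1724 present during compound exposure; potency is read from the fitted curve at half-maximal effect; % is scaled to controls: 0 for no effect and ±100 for the full control effect; nearly all actives have a fitted effect of over 65% in size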
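HTRF cAMP read-out (cAMP-d2 plus anti-cAMP antibody-K in lysis buffer, 30 min RT). Before lysis, cells are exposed to compounds with […] for 30 min at 37C in DPBS containing Ca/Mg, BSA and Tween 20.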
ClpP mod: qHTS Assay for Activators of ClpP; purified B. subtilis ClpP, FRET peptide cleavage, 20 min; actives 1.9% (n = 340,000); Potency, µM (doses to about 57.5 µM), for inactives: at the highest dose activity change, negative = active; AID 651965, 2013; active = well fitted falling curve with a large enough effect; inconclusive = small, poorly fitted or top-dose-only effect; inactive = no such curve, though single readings can be large or run the other way; also: potency is read from the fitted curve at half-maximal effect; the source files actives as falling curves though it sought activators and does not explain the sign; nearly all actives have a fitted effect of over 65% in size; many hits overshoot -100%
Target sequence (P80244 whole entry, looked up): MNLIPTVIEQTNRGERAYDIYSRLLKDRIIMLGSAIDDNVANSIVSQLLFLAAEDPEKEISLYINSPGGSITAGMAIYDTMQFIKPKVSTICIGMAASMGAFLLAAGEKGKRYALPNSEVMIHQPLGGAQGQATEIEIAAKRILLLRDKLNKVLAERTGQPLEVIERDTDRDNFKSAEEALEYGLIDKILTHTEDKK
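Purified B. subtilis ClpP, 10 microg/mL final in Tris/HCl pH8 with KCl, BSA, glycerol and Tween-20, cleaved an Abz/nitrotyrosine-quenched decapeptide. Fluorescence (ex 320, em 430) was read at 0 and 20 min at room temperature. Delta was normalized to 5.8 microM ADEP and DMSO/no-enzyme controls.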
CtBP-E1A inh: CtBP/E1A binding inhibition | actives 0.49% (n = 340,000) | AlphaScreen GST-E1A/His-CtBP binding, 1536-well; stronger effect = lower value; control for the full effect not named in the record | activity change, % (test concentration not listed); in the data active means activity change below about -65%; inconclusive means about -30% to -65%; inactive means above about -30%; also: % is scaled to controls: 0 for no effect and ±100 for the full control effect; compound concentration not given in the record
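Steps: dispense buffer (Tris pH 8.0, NaCl 300 mM, TCEP 1 mM, BSA, Tween 20); add 5X protein mix (GST-E1A, His-CtBP, 125 nM each); pin 23 nL compound; 2 h at 37 °C, dark; add 5X beads (50 ug/mL); 1 h; read.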
TRPV1 PAM: human TRPV1 potentiation. Q8NER1. TRPV1-expressing cells, Fluo-8 calcium influx, capsaicin EC20 potentiation; host cell line not named in the record; control for the full effect not named in the record. potentiation, % at 8.33 µM. actives 0.02% (n = 320,000); active means potentiation above 80%; inconclusive means 30% to 80%; inactive means below 30%; also: 0% is about no effect
Target sequence (Q8NER1 whole entry, looked up): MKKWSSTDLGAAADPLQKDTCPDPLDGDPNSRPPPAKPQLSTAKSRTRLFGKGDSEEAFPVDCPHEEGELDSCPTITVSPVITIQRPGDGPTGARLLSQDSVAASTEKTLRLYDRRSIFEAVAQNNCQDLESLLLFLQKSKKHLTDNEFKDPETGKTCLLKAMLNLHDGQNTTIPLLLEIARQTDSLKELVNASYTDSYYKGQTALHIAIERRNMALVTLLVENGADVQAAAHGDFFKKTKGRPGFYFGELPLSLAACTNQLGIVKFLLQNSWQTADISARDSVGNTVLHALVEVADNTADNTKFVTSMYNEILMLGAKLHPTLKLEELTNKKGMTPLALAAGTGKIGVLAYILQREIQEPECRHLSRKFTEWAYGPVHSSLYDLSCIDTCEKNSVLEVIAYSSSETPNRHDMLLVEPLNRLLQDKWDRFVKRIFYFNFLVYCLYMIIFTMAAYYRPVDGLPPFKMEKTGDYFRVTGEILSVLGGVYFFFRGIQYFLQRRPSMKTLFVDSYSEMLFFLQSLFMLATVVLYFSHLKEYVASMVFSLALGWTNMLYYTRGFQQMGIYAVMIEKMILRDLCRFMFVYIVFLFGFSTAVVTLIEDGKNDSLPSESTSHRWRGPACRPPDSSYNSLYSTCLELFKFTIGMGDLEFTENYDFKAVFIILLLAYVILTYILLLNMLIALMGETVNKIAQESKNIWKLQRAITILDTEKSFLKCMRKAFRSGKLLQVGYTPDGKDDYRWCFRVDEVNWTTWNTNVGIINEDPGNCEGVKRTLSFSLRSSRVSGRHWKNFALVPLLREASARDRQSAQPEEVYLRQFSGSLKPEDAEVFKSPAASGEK
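TRPV1-expressing cells were cultured overnight at 35.5C and loaded with Fluo-8 calcium dye for 40 to 90 min at room temperature. After a 10 s baseline, compound was added and calcium influx was read kinetically for 3 min (ex 480/em 520 nm).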
An asterisk follows results filed as active; ? = inconclusive; · = not tested or not shown; [ ] = remark or other dose.

SMILES	Sfp PPTase inh	Menin MLL FP FL	gsp agonist	gsp antagonist	ClpP mod	CtBP-E1A inh	TRPV1 PAM
Cc1ccccc1C(=O)N1CCN(c2ccc(NC(=O)c3ccc([N+](=O)[O-])o3)cc2)CC1	17%	2.3	-8%	-14%	·	3	29
NS(=O)(=O)c1ccc(NC(=O)CSc2nnc(Cc3cccs3)n2-c2ccccc2)cc1	-8%	4.1	-13%	-4%	1.3%	2	0
O=C(c1cc2c(cc1Br)OCCCO2)N1CCCCC1	19%	-0.8	-20%	-4%	1.4%	0	?
N#C/C(=C\c1ccc(F)c(Cl)c1)S(=O)(=O)c1ccccn1	12%	3.4	?	-3%	·	7	1
O=C(NCc1nnc(SCc2ccccc2)n1-c1ccccc1)C12CC3CC(CC(C3)C1)C2	-8%	-1.1	-5%	-16%	1.2%	-5	28
Cc1ccc(CNC(=O)C2CNc3cc(C)ccc3O2)cc1 (configuration not stated)	7%	0.6	-34%[inhibitor]	0%	-1.1%	-11	17
O=C(NCc1cccnc1)c1ccc(Cl)c(S(=O)(=O)N2CCCCCC2)c1	-9%	-1.2	8%[15.4 µM]	·	·	16	-8
CCCOc1ccc(C(=O)Nc2ccc3c(c2)OCO3)cc1	20%	·	-2%	-4%	-5.2%	-6	-5
Cc1cccc2c1NC(=O)C21OCC(CO)([N+](=O)[O-])CO1 (configuration not stated)	8%	5.1	4%	1%	·	11	-6
CCOCc1cnc(C)nc1NCC(=O)c1c(C)[nH]c2ccccc12	-3%	2.5	-24%	10%	-4.0%	-3	18
COc1ccc(C(=O)Nc2ccc(CN3CCS(=O)(=O)CC3)cc2)cc1	6%	3.2	17%	2%	-0.1%	·	10
COc1ccc(C(CC(=O)NC(C)c2ccc(-c3ccccc3)cc2)NC(C)=O)cc1 (configuration not stated)	-13%	4.9	10%[15.4 µM]	-11%	1.0%	0	12
NC(=S)N=Nc1c(O)[nH]c2cc(F)c(F)cc12	45µM*	0.6	2%	-9%	1.0%	-71*	1
COc1ccc(S(=O)(=O)n2nc(OC(=O)c3cccs3)cc2N)cc1	-15%	-8.4	-7%	5%	-1.3%	7	-2
COc1cc2c(C#Cc3cccnc3)c(-c3ccsc3)oc(=O)c2cc1OC	·	·	·	-10%	?	3	·
COC(=O)C1(C(F)(F)F)N=C(C(F)(F)F)Nc2ccc(Cl)cc21 (configuration not stated)	7%	6.5	0%	11%	1.4%	16	13
CCOc1cc(/C=C/c2ccc3cccc([N+](=O)[O-])c3n2)cc(Cl)c1O	?	5.6	3%	-15%	-26%	0	5
COc1cc2c(cc1OC)C(c1cc(OC)c(OC)cc1[N+](=O)[O-])N(C(C)=O)CC2 (configuration not stated)	-4%	0.6	3%	-5%	1.5%	·	-1
O=S(=O)(Nc1ccc2c(c1)OCCO2)c1cnc[nH]1	2%	-0.5	-26%	5%	-1.4%	0	4
Cc1c(C)[n+](=O)c(-c2cccs2)c(C)n1[O-]	6%	3.3	17%	17%	-1.5%	3	-5
O=C(/C=C/c1c(Cl)nc2ccccn12)N1CCCCC1	5%	-0.6	-5%[15.4 µM]	3%	·	-25	-17
CNC(=O)COc1coc(CN2CCN(c3ccccc3OC)CC2)cc1=O	14%	·	10%	0%	-2.8%	-2	20
CC(C)CNC(=O)c1cc(-c2ccc3c(c2)OCO3)on1	3%	-8.7	?	5%	-8.4%	3	14
Cc1ccc(OCC(=O)NNC(=O)c2ccc3c(=O)n4c(nc3c2)CCC4)cc1	·	·	-40%[inhibitor]	5%	-2.6%	-8	1
O=S(=O)(c1ccc2ccccc2c1)N1CCN(C2CCN(Cc3ccccc3)CC2)CC1	?	0.6	-24%	15%	-1.0%	-12	6
O=C(COc1ccc2c3c(c(=O)oc2c1)CCCC3)NCCCn1ccnc1	15%	·	26%	4%	4.5%	-28	8
COc1ccc(C(=O)OCC(=O)Nc2ccc(OC)c(S(=O)(=O)N3CCCCC3)c2)cc1[N+](=O)[O-]	·	·	-12%[15.4 µM]	-10%	·	-25	?
CC1CC(OCC(O)C[N+]2(C)CCOCC2)CC(C)(C)C1 (configuration not stated)	6%	-2.6	-61%[inhibitor]	13%	0.7%	2	-14
COc1ccc(N/C(=N/c2nc(C)cc(C)n2)NC(=O)Nc2ccc(Cl)c(Cl)c2)c(OC)c1	6%	-4.0	-5%[15.4 µM]	20%	-1.0%	17	1
Cc1ccc2nc(Cl)c(C#N)cc2c1	7%	-3.2	4%[15.4 µM]	-1%	-0.4%	1	3
CC(=O)OCC12COC3c4ccccc4OC(C)(CC1C)C3C2C (configuration not stated)	0%	-0.5	0%[15.4 µM]	·	·	19	-16
Oc1ccc(Cn2ccnc2)c2cccnc12	19%	-8.7	-53%[inhibitor]	7%	·	-95*	-12
O=C(CSC1=NS(=O)(=O)c2cc(Cl)ccc2N1)Nc1ccccc1F	·	·	?	-12%	-0.8%	1	7
CCCCN(C)CCC(=O)Nc1ccc(F)c(F)c1	5%	·	-1%	-18%	-3.0%	7	-10
Cc1cc(C)c(NC(=O)Cn2c([N+](=O)[O-])cnc2C)c(C)c1	5%	0.2	17%	5%	1.4%	7	17
O=C(CS(=O)(=O)c1ccccc1)N1CCN(c2ccccc2)CC1	·	·	-27%	18%	-0.6%	-6	-3
COc1ccc(-c2nnnn2C)cc1S(=O)(=O)Nc1ccc(C)cc1C	19%	-0.2	19%[15.4 µM]	-6%	·	1	5
COC(=O)c1ccc(NC(=S)NC(=O)c2c(-c3ccccc3)noc2C)cc1	-17%	7.4	19%[15.4 µM]	-6%	·	-1	-22
COc1ccc(CNCc2ccc(OC)c3ccccc23)cc1	3%	-0.1	-51%[inhibitor][15.4 µM]	1%	·	2	3
CN(CCOc1ccc(Cl)cc1)C(=O)c1ccc(S(=O)(=O)N2CCOCC2)cc1	-4%	5.3	-1%[15.4 µM]	-11%	·	0	-31
Cc1ccsc1C(=O)N1CCN(c2ncccn2)CC1	·	·	-3%	-2%	-12%	-18	-7
Cc1ccccc1C(=O)NNC(=O)C(=O)Nc1cccc(Cl)c1C	-15%	5.4	-28%	?	0.1%	4	14
O=[N+]([O-])c1ccc(N2CCN(Cc3ccccc3)CC2)s1	2%	?	10%[15.4 µM]	-2%	·	-11	7
CCN(CCNC(=O)C1CCN(c2nnc(-n3cccc3)s2)CC1)c1ccccc1	11%	3.5	18%	-7%	-1.4%	-3	7
NC(=S)NNc1ccc(Cl)c(Cl)c1	3.2µM*	3.1	7%	3%	-0.8%	·	16
COc1ccc(NC(=O)CNc2ccc(C#N)cc2)cc1	10%	0.0	-13%	3%	·	-12	-6
CCOC(=O)C1(C)NC(c2ccccc2F)C2C(=O)N(c3cccc(C(C)=O)c3)C(=O)C21 (configuration not stated)	7%	3.5	16%	8%	-1.1%	-1	7
O=C(CC1C=CCC1)Nc1ccccc1 (configuration not stated)	·	·	31%	-11%	·	7	·
C/C(=N\NC(=O)CNC(=O)c1ccccc1F)c1ccco1	7%	-0.9	-4%[15.4 µM]	5%	·	0	22
CCOC(=O)C1(Cc2ccc(Cl)cc2)CCN(C(C)Cc2ccc(O)c(OC)c2)CC1 (configuration not stated)	15%	4.4	?	-1%	-0.5%	-9	-1
CC(C)Sc1nnc(Nc2ccccc2)s1	-4%	1.0	-4%	-1%	0.5%	-1	-7
O=C(Nc1ccc(N2CCCC2)cc1)c1cc(Br)ccc1Cl	9%	1.5	-112%[inhibitor]	8%	·	-11	4
CCn1c(/C=C/Nc2ccccc2)[n+](CC)c2ccc(C(=O)OCC(F)(F)F)cc21	1%	-0.4	0%[15.4 µM]	10%	1.5%	3	-1
COc1cc(/C=N\NC(=O)c2ccc(Cl)cc2)ccc1Oc1ccc([N+](=O)[O-])cn1	-5%	-4.2	8%[15.4 µM]	-5%	-0.7%	-2	-35
COCCCNc1nc2nonc2nc1N1C[C@H]2CC[C@H]1C2	10%	-0.4	16%[15.4 µM]	-16%	·	0	8
Cc1ccc(CN/C=C/C(=O)c2ccc(Br)cc2)cc1	-7%	4.9	-33%[inhibitor]	-13%	-0.9%	9	16
CCCCCC(=O)Nc1ccc(C(=O)COC(=O)CN2C(=O)NC3(CCCC3)C2=O)cc1	·	·	-31%	-6%	-1.8%	4	5
C=CCOc1ccc(/C=C\c2nc(O)c([N+](=O)[O-])c(=O)[nH]2)cc1OCC	5%	2.6	-19%	12%	2.0%	·	3
Cc1ccc(NC(=O)NC(=O)CSc2n[nH]c(N)n2)c(C)c1	-2%	-9.9	-23%	-4%	1.5%	·	-2
CC(=O)N/C(=C\c1ccccc1)C(=O)NCC(=O)O	20%	2.0	9%	14%	1.0%	7	-2

More compounds
SMILES	Sfp PPTase inh	Menin MLL FP FL	gsp agonist	gsp antagonist	ClpP mod	CtBP-E1A inh	TRPV1 PAM
CC(C)C(C(=O)O)N1CCS(=O)(=O)CC1 (configuration not stated)	14%	0.2	-9%[15.4 µM]	-8%	·	5	-3
O=C(Cn1cnc([N+](=O)[O-])n1)NCc1ccccc1	0%	5.5	-26%	-2%	-0.2%	14	?
O=C(c1cnn(-c2ccc(Cl)cc2)c1)c1ccccc1O	2%	-0.2	-1%[15.4 µM]	-19%	·	-15	-1
CC1CC(C)CN(CCCNC(=O)c2ccc(CNS(=O)(=O)c3ccc(F)cc3)cc2)C1 (configuration not stated)	18%	·	?	14%	1.8%	1	7
C=CC[C@]12CC=CC(=O)[C@@]1(O)O[C@H](c1ccc(OC)c(OC)c1)[C@H]2C	·	·	·	0%	1.9%	4	·
CCOC(=O)c1cnc2c(OC)cccc2c1N1CC(C)CC(C)C1 (configuration not stated)	-27%	-0.7	-3%	-9%	-1.9%	·	-21
COc1ccccc1CNC(=O)CCNC(=O)c1ccco1	·	·	-4%[15.4 µM]	10%	-2.6%	-6	7
CCOc1ccc(OCCOC(=O)C2CCN(S(=O)(=O)c3ccc(C)c(C)c3)CC2)cc1	·	·	-15%	1%	-4.5%	-22	16
Cc1onc(-c2ccccc2)c1-c1nnc(-c2ccccc2C(F)(F)F)o1	-14%	5.3	-7%	-10%	·	23	-11
CCCCCCCCCCS(=O)(=O)N/N=C/c1ccc(O)cc1	14%	-0.9	16%	-12%	-0.5%	2	-3
